gsp antag: antagonizes gsp, the McCune-Albright syndrome mutation. gsp-mutant cells, cAMP HTRF, 30 min; control for the full effect not named in the record. Potency, µM (top dose mostly 76.9 µM), for the others: at the highest dose activity change, negative = inhibition, actives largely listed as inhibitors. actives 0.4% (n = 340,000). AID 624288; active = falling curve of any shape with a large fitted effect; inconclusive = falling curve, mostly with a smaller effect; inactive = flat or rising curve; cell line not stated here;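 note: intracellular cAMP measured with PDE inhibitor Ro 20-1724 present during compound exposure; potency is the fitted concentration of half-maximal effect; % is set by controls: 0 for no effect and ±100 for the full control effect; nearly all actives have a fitted effect of over 65% in size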
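Cells in G418 medium, seeded 16-24 h, 37C; buffer exchange to DPBS + 1 mM CaCl2, 0.5 mM MgCl2, 0.05% BSA; cpds in DMSO + […] (300 uM stock), 30 min 37C; HTRF cAMP detection.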
Menin-MLL FL inh: displaces fluorescein MLL peptide from human menin. Fluorescence polarization, fluorescein-MLL peptide displacement from menin. FP activity change, % at 61.4 µM. AID 1766. 290,000 tested, under 10 active; inconclusive = falling polarisation curve, or a change in total fluorescence; inactive = total fluorescence flat and polarisation flat or rising; no compound was filed as active; the % refers to the polarisation; negative = inhibition;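 note: % of control where 0% means no effect; inhibitors lower the polarisation; unlabelled MLL peptide was the positive control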
D2 PAM: potentiates the human D2 dopamine receptor allosterically. DiscoveRx D2 beta-arrestin cells, luminescence, 90 min; 100% = 57 uM dopamine signal. P14416. actives 0.23% (n = 360,000). AID 624464. potentiation, % (test concentration not listed); active = potentiation of 50% or more; inconclusive = 30% to 50%; inactive = 30% or less;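 note: compound concentration not given in the record; tested on top of an EC20 dose of dopamine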
Target sequence (P14416 whole entry, looked up): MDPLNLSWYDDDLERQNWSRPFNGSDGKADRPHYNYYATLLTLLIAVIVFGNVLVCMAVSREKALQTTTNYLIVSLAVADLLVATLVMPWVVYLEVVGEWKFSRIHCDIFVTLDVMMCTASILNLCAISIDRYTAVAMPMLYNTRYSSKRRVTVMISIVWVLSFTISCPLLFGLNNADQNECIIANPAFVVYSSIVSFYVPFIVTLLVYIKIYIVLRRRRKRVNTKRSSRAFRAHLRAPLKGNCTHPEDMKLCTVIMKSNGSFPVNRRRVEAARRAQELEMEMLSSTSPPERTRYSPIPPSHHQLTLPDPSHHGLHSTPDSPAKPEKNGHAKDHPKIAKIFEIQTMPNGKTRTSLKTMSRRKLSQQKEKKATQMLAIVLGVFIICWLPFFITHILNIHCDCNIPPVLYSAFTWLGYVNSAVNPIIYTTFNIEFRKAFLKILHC
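D2 cells co-treated with compound plus 50 nM dopamine (EC20) for 90 min at 37 deg C to detect potentiation. Beta-arrestin recruitment was read as enzyme-fragment luminescence after 1 h at ambient temperature. Full response was set by 57 uM dopamine.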
TRPV1 PAM: potentiators of human vanilloid receptor 1 (TRPV1). actives 0.02% (n = 320,000). Q8NER1. AID 540277. TRPV1-expressing cells, Fluo-8 calcium influx, capsaicin EC20 potentiation; host cell line not named in the record; control for the full effect not named in the record. potentiation, % at 8.33 µM; active means potentiation above 80%; inconclusive means 30% to 80%; inactive means below 30%; note: 0% is about no effect
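Cells expressing TRPV1 were dye-loaded with Fluo-8 and read kinetically: 10 s baseline, 3 min after compound (agonist portion), then 2 min after EC20 capsaicin (allosteric enhancer portion). Calcium-bound dye fluorescence at 480/520 nm.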
ClpP mod: qHTS Assay for Activators of ClpP; ATP-dependent Clp protease proteolytic subunit (Bacillus subtilis (strain 168)), P80244; purified B. subtilis ClpP, FRET peptide cleavage, 20 min; Potency, µM (titrated, usually from 57.5 µM), for inactives: top-dose activity change, negative = active; actives 1.9% (n = 340,000); active = well fitted falling curve with a large enough effect; inconclusive = small, poorly fitted or top-dose-only effect; inactive = no such curve, though single readings can be large or run the other way; note: potency is the fitted concentration of half-maximal effect; the source files actives as falling curves though it sought activators and does not explain the sign; nearly all actives have a fitted effect of over 65% in size; many hits overshoot -100%
Target sequence (P80244 whole entry, looked up): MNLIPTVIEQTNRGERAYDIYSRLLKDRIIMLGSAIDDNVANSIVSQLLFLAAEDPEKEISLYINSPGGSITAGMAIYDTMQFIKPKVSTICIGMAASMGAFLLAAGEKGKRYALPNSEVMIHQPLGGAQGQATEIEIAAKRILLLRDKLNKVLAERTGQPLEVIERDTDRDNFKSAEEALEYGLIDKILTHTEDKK
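Purified B. subtilis ClpP, 10 microg/mL final in Tris/HCl pH8 with KCl, BSA, glycerol and Tween-20, cleaved an Abz/nitrotyrosine-quenched decapeptide. Fluorescence (ex 320, em 430) was read at 0 and 20 min at room temperature. Delta was normalized to 5.8 microM ADEP and DMSO/no-enzyme controls.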
gsp ag: gsp mutant agonism | AID 624287 | Potency, µM (top dose mostly 76.9 µM), for the others: at the highest dose activation (cAMP increase), most hits filed as activators | gsp mutant cells, cAMP HTRF, 30 min; control for the full effect not named in the record | actives 0.13% (n = 340,000); active = well fitted activation curve with a large enough effect; inconclusive = small, poorly fitted or top-dose-only effect, or another doubt; inactive = no such curve, though single readings can be large or run the other way; cell line not stated here;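 note: phosphodiesterase inhibitor Ro 20-1724 added with compounds to block cAMP breakdown; potency is the fitted concentration of half-maximal effect; nearly all actives have a fitted effect of over 60% in size; about a fifth of the inactives were tested at one dose only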
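Cells stably selected in G418 were plated at 2000/well, grown 16-24 hr, then given compounds in DMSO with the PDE inhibitor […] (300 uM solution added) for 30 min at 37C; cAMP was read by HTRF.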
Sfp inh: blocks B. subtilis Sfp PPTase activity | Biochemical Sfp PPTase activity, qHTS | Potency, µM, without a hit: max response, negative = inhibition, most hits filed as inhibitors | actives 3.5% (n = 310,000); active = well fitted inhibition curve with a large enough effect; inconclusive = small, poorly fitted or top-dose-only effect, or another doubt; inactive = no such curve, though single readings can be large or run the other way;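 note: the enzyme is Sfp with the accession as filed and its product quenches rhodamine fluorescence; potency is the fitted concentration of half-maximal effect; 0% = enzyme reaction without inhibitor and -100% = no enzyme wells; top concentration of the series not given in the record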
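Sfp 15 nM + cpd, 15 min RT; start w/ rhodamine-CoA 5 uM, BHQ-2-YbbR 12.5 uM (final); 50 mM Hepes pH 7.6, 10 mM MgCl2, 0.01% NP-40, 0.01% BSA; read 525/598 nm at 0 and 30 min.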
* hit, by the source's call; ? = inconclusive; . = not tested or not shown; & = joins results of further samples; [ ] = remark or other dose.

SMILES	gsp antag	Menin-MLL FL inh	D2 PAM	TRPV1 PAM	ClpP mod	gsp ag	Sfp inh
CCN(CC(=O)Nc1c(F)cccc1F)C(=O)Cn1c(=O)cnc2ccccc21	-9%	.	-2	7	-1.4%	-12%	.
COc1ccc(NC(=O)c2cc(S(=O)(=O)N3CCCCC3)c[nH]2)cc1Cl	-9%	2.8	-5	-17	18%&45%	-1%	21%
CC(C)Cn1[nH]c2c3c(ccc2c1=O)C(=O)c1ccccc1C3=O	-12%	0.5	12	-34	1.1%	6%	-3%
CCC(CC)c1nnc(NC(=O)c2cccnc2SC)s1	-50%	-2.8	-18	2	.	-5%[15.4 µM]	14%
COc1ccc(NC(=O)CSc2nnc(NC(C)=O)s2)c([N+](=O)[O-])c1	21%	0.3	-4	2	-0.9%	26%	-23%
Cc1ccccc1OCCC(=O)N(Cc1ccccc1)c1c(N)n(Cc2ccccc2)c(=O)[nH]c1=O	-7%	.	2	-3	-3.1%	-58%[inhibitor]	10%
Cc1cc(C)nc(-n2nc(C)cc2NC(=O)CNC(C)c2ccccc2)n1 (stereo not given)	-1%	1.7	-3	2	-0.8%	-15%	16%
CN(Cc1c(C(=O)N/N=C/c2ccccc2F)nnn1-c1nonc1N)c1ccccc1	?	2.9	-28	-9	-0.7%	6%	6%
COC(=O)CN1C(=O)[C@@H]2[C@H](C1=O)[C@@H]1CC(C(=O)OC)=C[C@@H](C(=O)OC)[C@@H]3C1=C(C(=O)[C@@]3(C)NC(=O)c1ccccc1)[C@@H]2C	-1%	.	-22	.	-0.8%	.	.
CC(C)(C)NC(=O)C1Cc2ccccc2CN1 (stereo not given)	3%	-1.9	3	29	.	17%	8%
c1ccc(-c2nnc3sc(Cc4cccs4)nn23)cc1	1%	3.7	-4	12	-21%	-32%[inhibitor]	5%
COc1ccc(/C=N/NC(=O)CCn2nc(C)cc2C)cc1	2%	2.6	-5	9	.	-4%	6%
O=[N+]([O-])c1cc(S(=O)(=O)Nc2ccccc2)ccc1-n1nnc2ccccc21	-7%[15.4 µM]	-2.1	17	5	-2.5%	6%	13%
Fc1ccc(C(CCCn2nnc(-c3cccnc3)n2)c2ccc(F)cc2)cc1	?	4.7	-7	-9	-3.2%	-36%[inhibitor]	?
COc1ccc(/C=N/n2c(-c3ccc(C)cc3)n[nH]c2=S)cc1OC	0%	-0.3	-6	0	1.5%	19%	-28%
CN(C)S(=O)(=O)c1ccc(C(=O)NCCS(=O)(=O)N2CCN(c3ccc(F)cc3)CC2)cc1	7%	0.6	-2	2	0.2%	1%	13%
O=C(CNC(=O)c1ccc(Br)cc1)OCc1cc([N+](=O)[O-])cc2c1OCOC2	-61%	0.0	-34	7	.	0%[15.4 µM]	8%
CN(c1ccc(C(=O)NCCSCc2ccc(Cl)cc2)cc1)S(=O)(=O)c1ccccc1	2%	5.1	-19	-9	28µM*	10%	-4%
Cc1c(C(=O)NCc2ccccn2)oc2ccc(S(=O)(=O)N3CCOCC3)cc12	-2%	0.2	-18	14	0.9%	32%	1%
CCCOc1ccc(-c2c(C(=O)N/N=C/C3CC=CCC3)nnn2-c2nonc2N)cc1 (stereo not given)	-15%	-0.6	-3	-6	-2.4%	10%	12%
Cc1cc(Nc2ccc(N(C)C)cc2)n2ncnc2n1	-20%	-4.2	-2	4	.	-13%	32%[activator]
O=C(CSc1nccc(=O)[nH]1)Nc1cccc(S(=O)(=O)N2CCOCC2)c1	8%	2.0	0	4	0.3%	?	-18%
CCOC(=O)N1CCN(C(=O)c2cc(COc3cccc(C(F)(F)F)c3)on2)CC1	-5%	1.4	10	-19	-3.3%	-40%[inhibitor]	6%
COc1ccc(CNC(=O)C(C)N(Cc2ccco2)C(=O)c2snc(C(N)=O)c2N)cc1 (stereo not given)	-19%	3.1	-11	10	-14%	-50%[inhibitor]	-4%
CC1(C)Cc2c(C#N)c(SCc3ccccc3)nc(N3CCOCC3)c2CO1	-20%	-0.2	-6	-5	?	6%	-13%
Cc1[nH]c2ccccc2c1C1C(c2ccccc2)=NN=C(C(C)C)N1O (stereo not given)	11%	-1.4	12	-10	-3.2%	-12%	-1%
O=C(O)c1cccc(S(=O)(=O)N2CCc3ccccc3C2)c1	-7%	-0.6	-26	8	-0.3%	8%[15.4 µM]	0%
COc1ccccc1CN1CC(C(=O)NCCN2CCNC2=O)CCC1=O (stereo not given)	7%	-0.2	-5	-5	-5.2%	-20%	14%
CCOC(=O)c1c(N)sc(C(=O)OCCOC)c1C	9%	-3.4	-3	-17	.	7%[15.4 µM]	25µM*
COc1ccc2c(CCNC(=O)CN3C(=O)c4ccccc4C3=O)c[nH]c2c1	3%	15	-2	-2	2.3%	4%	3%
CC(C)N(C)Cc1nnnn1CC(=O)N(C)Cc1cccc(Cl)c1	0%	-0.5	-3	0	0.9%	-23%	8%
CC(=O)c1cccc(NC(=O)N2C3CCC2CC(O)(c2cccnc2)C3)c1 (stereo not given)	2%	-1.7	9	13	-0.4%	-10%	8%
CC(C)(C)c1cc(NS(=O)(=O)c2ccc3c(c2)OCCO3)on1	-10%	1.8	1	17	-0.3%	-3%	-2%
CCC(NC(=O)c1ccccc1NC(=O)c1ccccc1)C(=O)O (stereo not given)	-17%	-0.6	-8	6	0.5%	?	?
NC(=O)c1ccc(NC(=O)COC(=O)CCCOc2ccccc2)cc1	8%	.	0	-22	-1.0%	-28%	.
CCn1ccc(C(=O)NC2=C(C#N)CCC2)n1	4%	0.7	-2	-23	0.1%	-13%	0%
O=C(OCc1cc(=O)n2c(n1)sc1ccccc12)c1cccc(O)c1	-4%	3.6	-2	-1	-23%	-4%	-10%
Cc1ccc(-c2csc(NC(=O)C3=COCCO3)n2)cc1	-5%	0.6	-10	-29	-4.0%	16%	-17%
COc1cc(NC(=O)CN2C(=O)NC(c3ccccc3)(c3ccccc3)C2=O)c(C)cc1[N+](=O)[O-]	-19%	1.5	-9	6	-4.2%	8%	10%
CCOC(=O)c1c(NC(=O)C2CCCO2)sc(C(N)=O)c1C (stereo not given)	-1%	1.6	0	-6	28µM*	18%	0%
CC(=NCCc1ccccc1)C1=C(O)CCC1=O	7%	0.4	-2	7	-0.9%	-27%	7%
COc1ccccc1NC(=O)Cn1c(=O)oc2ccccc21	12%	2.7	-6	3	-5.4%	-5%	20%
CCCSc1cc(N)cc([N+](=O)[O-])c1	-9%	0.3	-2	-13	.	3%[15.4 µM]	12%
Cc1ccc(N=Nc2ccc(N)cc2C)c(S(N)(=O)=O)c1	0%	?	-7	14	.	-4%[15.4 µM]	?
COc1ncnc2c1ncn2CCCNc1ccc(C)c(C)c1	.	.	-3	.	-0.9%	-80%[inhibitor]	.
O=C(O)c1cc([N+](=O)[O-])ccc1-c1ccc([N+](=O)[O-])cc1C(=O)O	.	.	0	.	0.8%	33%	.
CC1=CC(C)(C)N2C(=O)C3(NCCc4c3[nH]c3ccccc43)c3cccc1c32 (stereo not given)	11%	-0.8	12	-6	.	-21%[15.4 µM]	-8%
CC(=O)Nc1cccc(C(=O)NC2CCCc3c2cnn3-c2cc(C)cc(C)c2)c1 (stereo not given)	-4%	2.8	-26	-12	-3.0%	-8%	1%
CC(C)CCc1c(O)nc(SCC(=O)N2CCCCCC2)[nH]c1=O	.	4.4	.	-3	.	.	22%
COc1ccc(NS(=O)(=O)c2ccc(C)c(NC(=O)NC3CCCCC3)c2)cc1	-6%	12	-16	-5	-6.7%	-53%[inhibitor]	22%
Further structures:
SMILES	gsp antag	Menin-MLL FL inh	D2 PAM	TRPV1 PAM	ClpP mod	gsp ag	Sfp inh
O=C(CSc1nc2ccccc2c(=O)n1Cc1ccco1)N1CCN(c2ccccc2)CC1	7%	2.5	-10	-11	-17%	-47%[inhibitor]	?
CC1(C)CC(O)CC(C)(C)N1CC(O)COCc1ccccc1 (stereo not given)	2%	0.2	-6	3	0.9%	?	18%
CN(C)/C=N/c1ncn(-c2ncc(C(F)(F)F)cc2Cl)n1	-3%	0.8	4	?	.	4%	13%
Nc1nc2ccc(Cc3ccncc3)cc2s1	6%	-1.0	-3	8	.	21%	-11%
Cc1ccc(C)c(N2CCN(C(=O)c3nn(C)c4c3CS(=O)(=O)c3ccccc3-4)CC2)c1	?	0.0	-6	28	-11%&-1.1%	1%	-2%
CCS(=O)c1ccccc1C(=O)OCC(=O)Nc1cccc(S(=O)(=O)N2CCCCC2)c1 (stereo not given)	?	.	-1	5	0.5%	5%	.
O=C(CCc1ccccc1)Nc1cccnc1Cl	11%	?	5	-28	.	7%	17%
CCOC(=O)c1c(C)[nH]c(-c2csc(C)n2)c1C	-6%	3.6	-7	-13	0.4%	2%[15.4 µM]	-3%
O=C(CNC(=S)N(Cc1ccccc1)Cc1ccccc1F)NCCc1ccccc1	?	-5.3	-18	-4	?	-1%[15.4 µM]	26%
Cc1cc(N/N=C/c2ccccc2)nc(N)n1	8%	2.9	-2	-3	-1.9%	-13%	6%
CCc1ccc2c(c1)C(c1ccc(N3CCOCC3)cc1)=NNC(c1ccncc1)=N2	-24%	1.5	-10	-9	1.9%	-24%	9%
CN1CCc2c(sc3nc(NN)n(Cc4ccccc4)c(=O)c23)C1	3%	?	-3	2	.	-2%	-17%
COc1ccc(NC(=S)NCC2CCN(c3ccc(OC)cc3)C2)cc1 (stereo not given)	-17%	-0.7	-13	-3	-4.1%	?	-17%
COc1ccc(S(=O)(=O)N2CCOCC2)cc1NC(=O)c1ccccc1-c1ccc(C(F)(F)F)cc1	-9%	2.8	-8	1	51%	11%	-13%
O=C(Cc1ccccc1)Nc1nnc(-c2ccco2)s1	0%	9.8	4	-16	-29%	-37%[inhibitor]	6%
Cc1cc(C(=O)Nc2ccc(N3CCOCC3)c3nonc23)ccc1[N+](=O)[O-]	-11%	-4.3	-4	1	.	26%	9%
COc1cc(NC(=O)Cn2nc(C(F)(F)F)c(Br)c2C)cc([N+](=O)[O-])c1	-15%	0.1	-20	-29	1.9%	-7%	15%
COc1ccc(-c2cc(C(=O)NC3CCCC3)c3ccccc3n2)cc1OC	-4%	.	0	.	.	?	.

From PubChem
